MARV entry inh: qHTS for inhibitors of binding or entry into cells for Marburg Virus; Potency, µM (doses to about 37.8 µM), for inactives: top-dose activity change, negative = inhibition, actives largely listed as inhibitors; AID 540276, 2011; 300,000 tested, 1.8% active; Marburg virus pseudotyped entry inhibition, cell reporter; control for the full effect not named in the record; about a third of the inactives were read at about 46 µM; active = well fitted inhibition curve with a large enough effect; inconclusive = small, poorly fitted or top-dose-only effect, or effect the other way; inactive = flat fitted curve, though single readings scatter; tested in HEK293 cells; about a fifth of its hits are not listed in these tables; further: on the % scale 0 is the no-effect control and ±100 the full control effect; luciferase read-out
Cruzain inh noDet: qHTS Assay for Promiscuous and Specific Inhibitors of Cruzain (without detergent); Potency, µM, for inactives: max response, negative = inhibition, most hits filed as inhibitors; Cruzipain (Trypanosoma cruzi), P25779; purified cruzain, Z-FR-AMC fluorescence, no detergent; 200,000 tested, 2.3% active; active means well fitted curve in the direction sought with a large enough effect; inconclusive means small, poorly fitted or top-dose-only effect, or another doubt; inactive means no such curve, though single readings can be large; an effect the other way counts as inactive or inconclusive;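 further: plate controls were enzyme without inhibitor for no effect and buffer without enzyme for full effect; nearly all actives have a fitted effect of over 40% in size; top concentration of the series not given in the record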
Target sequence (P25779 123-467 limits assumed): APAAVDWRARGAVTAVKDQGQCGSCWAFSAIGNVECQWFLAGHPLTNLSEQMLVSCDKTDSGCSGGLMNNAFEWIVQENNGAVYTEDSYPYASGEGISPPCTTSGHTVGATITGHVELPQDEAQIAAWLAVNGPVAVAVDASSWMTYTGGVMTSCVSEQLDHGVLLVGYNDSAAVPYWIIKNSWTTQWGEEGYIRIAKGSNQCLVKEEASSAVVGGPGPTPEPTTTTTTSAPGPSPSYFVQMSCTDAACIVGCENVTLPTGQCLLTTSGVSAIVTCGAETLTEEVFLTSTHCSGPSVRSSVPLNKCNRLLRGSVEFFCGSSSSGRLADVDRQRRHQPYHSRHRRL
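Purified cruzain at 1.5 nM, pre-incubated 15 min with compound at room temperature in 100 mM sodium acetate pH 5.5, 5 mM DTT, 0.00005% Triton X-100. Reaction started with 2 uM Z-FR-AMC; AMC fluorescence increase over 60 s gives rate.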
Cruzain Triton: qHTS Assay for Promiscuous and Specific Inhibitors of Cruzain (with detergent); Cruzipain (Trypanosoma cruzi), P25779; purified cruzain, Z-FR-AMC fluorescence, 0.01% Triton; Potency, µM, for the others: max response, negative = inhibition, hits mostly inhibitors; 200,000 tested, 0.43% active; AID 1478, 2009; active means well fitted curve in the direction sought with a large enough effect; inconclusive means small, poorly fitted or top-dose-only effect, or another doubt; inactive means no such curve, though single readings can be large; an effect the other way counts as inactive or inconclusive;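 further: plate controls were neutral wells for no effect and buffer without enzyme for full effect; nearly all actives have a fitted effect of over 40% in size; top concentration of the series not given in the record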
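Compounds were screened in titration against cruzain (1.5 nM) with 0.01% Triton X-100 to counter colloidal aggregation. Activity was the AMC fluorescence increase over 60 s after adding 2 uM Z-FR-AMC at pH 5.5.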
2A StopGo: High Throughput Screening for Foot and Mouth Disease Virus Antivirals. AID 1159524, 2015. Potency, µM (top dose mostly 57.9 µM), without a hit: top-dose signal change, negative = less light. 410,000 tested, 1.2% active. human cells with a luciferase reporter of 2A StopGo recoding; control for the full effect not named in the record; active = well fitted falling curve with a large enough effect; inconclusive = small, poorly fitted or top-dose-only effect; inactive = no such curve, though single readings can be large or run the other way; tested in HEK293T cells; further: on the % scale 0 is the no-effect control and ±100 the full control effect; nearly all actives have a fitted effect of over 45% in size; luciferase light after 4 h
SARS PLP yeast: qHTS of Yeast-based Assay for SARS-CoV PLP | S. cerevisiae expressing SARS-CoV PLpro, growth rescue; control for the full effect not named in the record | Potency, µM (titrated, usually from 32.9 µM), for the others: at the highest dose activity, positive = growth rescue | 330,000 tested, 0.19% active | AID 485353, 2010; further: 0% is about no effect; nearly all actives have a fitted effect of over 55% in size; growth read by luminescence after 48 h
LASV entry inh: qHTS for Inhibitors of binding or entry into cells for Lassa Virus | 300,000 tested, 1.2% active | Lassa virus pseudotype entry inhibition, cell reporter; control for the full effect not named in the record | Potency, µM (top dose mostly 37.9 µM), without a hit: top-dose activity change, negative = inhibition, most hits filed as inhibitors; active means well fitted inhibition curve with a large enough effect; inconclusive means small, poorly fitted or top-dose-only effect, or effect the other way; inactive means flat fitted curve, though single readings scatter; tested in HEK293 cells; further: on the % scale 0 is the no-effect control and ±100 the full control effect; nearly all actives have a fitted effect of over 50% in size; luciferase read-out
RE007 growth inh: qHTS Assay for Inhibitors of the HIV-1 protein Vpr; 360,000 tested, 0.21% active; S. pombe RE007 Vpr strain, BacTiter-Glo ATP luminescence, 24 h; control for the full effect not named in the record; AID 651644, 2012; Potency, µM (highest dose often 92.2 µM), without a hit: top-dose activity change, negative = less growth; active = well fitted falling curve with a large enough effect; inconclusive = small, poorly fitted or top-dose-only effect; inactive = no such curve, though single readings can be large or run the other way;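 further: on the % scale 0 is the no-effect control and ±100 the full control effect; nearly all actives have a fitted effect of over 50% in size; the assay follows cell death caused by Vpr and the record does not say whether a fall means rescue or toxicity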
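Fission yeast strain RE007, carrying one chromosomally integrated HIV-1 vpr copy, was seeded at OD 0.01 in PMG+AL medium with 23 nL pinned compound. After 24 h at 30 °C and 99% humidity, viability was read by BacTiter-Glo luminescence.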
NS1 inh: qHTS Assay for Inhibitors of Influenza NS1 Protein Function; AID 2326, 2010; S. cerevisiae slowed by influenza A NS1, growth recovery by OD600; Potency, µM (top dose mostly 46.1 µM), without a hit: at the top dose activity, positive = more growth; 270,000 tested, 0.4% active; further: actives are rising curves; nearly all actives have a fitted effect of over 50% in size
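Read-out: OD600 growth recovery of NS1-expressing budding yeast. Cells grown overnight at 30C in -URA glucose medium, washed, resuspended and diluted 1:100 in 2% galactose assay medium, pH 6.0. Same strain lacking NS1 served as positive control.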
Starred values were filed as active, the others as inactive; u = inconclusive; x = not tested or not shown; & = joins results of further samples; [ ] = dose if it differs, or a comment. Unless noted, the call rests on the fitted dose curve; in most records, active means well fitted rising curve with a large enough effect; inconclusive means small, poorly fitted or top-dose-only effect; inactive means no such curve, though single readings can be large or run the other way. Potency means the concentration at half of the fitted maximal effect.

No.	compound	MARV entry inh	Cruzain inh noDet	Cruzain Triton	2A StopGo	SARS PLP yeast	LASV entry inh	RE007 growth inh	NS1 inh
1	C=CCNC(=O)C1CC1(c1cccc(C)c1)c1cccc(C)c1 (stereo not drawn)	-25%[46.1 µM]	x	x	3%	x	4%	-2%	x
2	O=C(NCc1ccc(Cl)cc1)C1CCCO1 (stereo not drawn)	21%[46.1 µM]	x	x	0%	1%	6%[46.1 µM]	4%	-7%
3	CCc1nnc(NC(=S)Nc2ccccc2)s1	-26%	x	x	67%[activator]	1%	5%	6%	x
4	CCC(=O)c1c(O)n(C2CCCCCC2)c(=O)[nH]c1=O	-10%	12%	2.1%	-22%	3%	-5%	0%	-206%
5	CCCN1C(=O)C(O)(CC(=O)c2ccc(C(C)C)cc2)c2ccccc21 (stereo not drawn)	-6%[46.1 µM]	u	-2.2%	-28%	x	1%[46.1 µM]	x	x
6	CCc1c(O)nc(SCC(=O)c2ccccc2)n(-c2ccccc2)c1=O	x	x	x	18%	0%	x	5%	6%
7	CCc1ccc(NC(=O)CSc2nc(=O)n(Cc3ccncc3)c3c2CCC3)cc1	x	-1%	-0.6%	u	x	13%[46.1 µM]	x	x
8	Cc1cc(C)c(C)c(OCC(=O)O/N=C(\N)c2ccncc2)c1	u	x	x	-9%	-7%	-1%[46.1 µM]	-4%	-8%
9	Cc1cc(NC(=O)/C=C/C(=O)N(CC(=O)NC2CCCC2)c2ccc(F)cc2)no1	-29%[46.1 µM]	x	x	-9%	0%	u	3%	5%
10	Nc1c(C(=O)N2CCOCC2)sc(=S)n1-c1ccccc1	2%	-4%	1.1%	-3%	-1%	-1%	10%	-108%
11	CC(=O)NCCNC(=O)c1ccc2c(c1)S(=O)(=O)c1ccccc1C2=O	-1%[46.1 µM]	x	x	9%	2%	10%[46.1 µM]	-2%	4%
12	CC1CCN(S(=O)(=O)c2csc(C(N)=O)c2)CC1	x	6%	0.0%	30%[activator]	x	8%[46.1 µM]	x	x
13	CCCN(CCC)S(=O)(=O)c1ccc(C(=O)Nc2sc3c(c2C(=O)OC)CCN(CC)C3)cc1	x	18%	-1.0%	-28%	x	u	x	x
14	O=C(CSc1n[nH]c(=O)[nH]c1=O)N/N=C/C=C\c1ccccc1	19%[46.1 µM]	x	x	-7%	1%	1%	-8%	x
15	CCCCN1C(=O)C2(NNc3ccccc3O2)c2ccccc21 (stereo not drawn)	u	-6%	-4.5%	32%[activator]	-30%	-4%	u	-33%
16	CSCCC(NC(=O)c1cc(CC(C)C)oc1C)C(=O)O (stereo not drawn)	14%	30%	-1.1%	-9%	2%	19%	-17%	0%
17	O=C(NCCCn1ncc2ccccc21)c1cc(COc2c(F)cccc2F)on1	u	x	x	-3%	-2%	-23%[46.1 µM]	-15%	-30%
18	Cc1ccc(OCC(O)CN2CCN(Cc3ccc4c(c3)OCO4)CC2)c(C)c1 (stereo not drawn)	u	-7%	4.1%	-11%	-1%	-17%[46.1 µM]	2%&-17%	-11%
19	Cc1ccc(C)c(N(CC(=O)NCC2CCCO2)C(=O)CCC(=O)Nc2nccs2)c1 (stereo not drawn)	-12%[46.1 µM]	x	x	11%	-6%	x	2%	0%
20	Cc1cccc(C)c1OCc1cc(C(=O)N2CCC(c3ccccc3)CC2)no1	x	x	x	39%[activator]	-3%	x	-2%	-15%
21	COc1ccc(OC)c(CN2CCN(C(=O)c3cccs3)CC2)c1	u	-7%	-1.4%	-11%	12%	1%	-4%	-5%
22	C=CCn1c(SCC(=O)N2CCN(c3ccccc3)CC2)nnc1-c1ccco1	-5%	2%	0.7%	-10%	-1%	-11%	-10%	-5%
23	Oc1ccc(-c2nc3cnccn3c2Nc2ccc3c(c2)OCCO3)cc1	x	-24%	-5.2%	-16%	-1%	x	-5%	-17%
24	O=C(CCC1N=C2c3ccccc3N=C(SCc3ccc(F)cc3)N2C1=O)NC1CCCCC1 (stereo not drawn)	x	16%	2.5%	u	x	2%[46.1 µM]	x	x
25	CSCCC(NC(=O)c1ccccc1Cl)C(=O)N(C)CC(=O)Nc1ccc(N2CCOCC2)cc1 (stereo not drawn)	-11%	x	x	-16%	9%	2%	10%	x
26	Cn1c(=O)c(=O)n(C)c2cc(S(=O)(=O)NCCc3ccccc3)ccc21	3%	-5%	-5.7%	76%[activator]	-9%	5%	-12%	-7%
27	O=C(NCc1ccc(Cl)cc1)C(=O)NCC1OCCCN1S(=O)(=O)c1cccs1 (stereo not drawn)	2%	x	x	-16%	1%	-20%	6%	-2%
28	CCn1cc(C(=O)O)c(=O)c2cnc(N3CCN(C(=S)NC(=O)c4ccc(OC)cc4)CC3)nc21	1%	x	x	-4%	0%	u	15%	9%
29	O=C(CSc1nccn1-c1ccccc1)Nc1nc2ccccc2s1	x	-9%	-7.8%	-5%	x	11%[46.1 µM]	x	x
30	CCN1c2ccccc2-c2nc(SCC(=O)Nc3cccc(C(F)(F)F)c3)ncc2S1(=O)=O	x	-4%	-3.4%	u	x	-6%[46.1 µM]	x	x
31	COc1ccc(-c2c3c(=O)n(C)c(=O)n(C)c3cn2C2CCCCC2)cc1	u	13%	-1.6%	x	1%	u	3%	-10%
32	CCOc1ccc2nc(Nc3nc(CSc4nnnn4-c4ccccc4)cc(=O)[nH]3)nc(C)c2c1	u	u	-0.1%	-7%	6%	u	3%	6%
33	Cc1nc2c3cc(F)ccc3n(Cc3ccc(F)cc3)c2s1	u	-8%	-9.5%	-24%	-8%	u	-6%	-6%
34	Cc1cc(C(=O)N2CCCC(CO)(Cc3ccc(F)cc3)C2)c(C)o1 (stereo not drawn)	u	x	x	-6%	4%	-3%	7%	-22%
35	CC(C)CN(C(=O)CCc1ccccc1Cl)c1c(N)n(Cc2ccccc2)c(=O)[nH]c1=O	-25%	x	x	-13%	-1%	-22%	7%	x
36	COc1ccccc1Oc1nc2ccccn2c(=O)c1/C=C(\C#N)C(=O)Nc1c(C)n(C)n(-c2ccccc2)c1=O	9%[46.1 µM]	x	x	u	0%	u	-3%	1%
37	Cc1cc(C(=O)OCC(=O)NCc2ccccc2Cl)c(C)o1	5%[46.1 µM]	x	x	11%	-4%	0%	-6%	x
38	CCOC(=O)/C(=C/c1ccc(N2CCC(c3ccccc3)=N2)cc1)C(C)=O	-30%	1%	-7.9%	-12%	-70%	u	-10%	-1%
39	Cc1cc2ccccc2n1CCNC(=O)C(C)C	x	4%	2.9%	-3%	2%	x	1%	2%
40	Cn1c(NCc2ccco2)nc2c1c(=O)n(Cc1ccc(Cl)cc1Cl)c(=O)n2C	u	8%	-7.5%	x	-11%	1%	7%	-1%
41	CN1CCN(CC(=O)N2c3ccccc3Sc3ccccc32)CC1	x	x	x	-13%	-1%	x	7%	-5%
42	CCOC(=O)c1cc(C(=O)OCC)c2cccc(C)n2c1=O	-4%	0%	-2.7%	-14%	1%	-13%	1%	-47%
43	COc1cccc(NC(=O)CN(C)C(=O)c2ccc3[nH]c4c(c3c2)CC(C)CC4)c1 (stereo not drawn)	19%	x	x	-13%	-3%	-3%	-2%	x
44	Cc1cc(C(=O)NCCC2=CCCCC2)c(C)o1	15µM*	-10%	1.1%	1%	-4%	u	4%	-33%
45	CCC1=NC(c2ccc(Br)cc2)N(O)C1(C)C (stereo not drawn)	-12%[46.1 µM]	x	x	-2%	-1%	2%	-19%	1%
46	CN(C)S(=O)(=O)c1ccc(C(=O)NCCC(=O)N2CCCC2)cc1	u	x	x	20%	0%	-23%	2%	7%
47	O=C1CC(c2cccc(F)c2)c2c(n3ncnc3[nH]c2=O)N1 (stereo not drawn)	4%[46.1 µM]	6%	1.9%	17%	x	10%[46.1 µM]	x	x
48	Cc1c(Cl)cccc1NC(=O)Nc1ccccc1C(N)=O	x	x	x	-1%	-1%	x	-7%	-1%
49	CCN(CC)CCCNC(=O)CCCn1c(=O)[nH]c2ccc(Br)cc2c1=O	u	7%	-1.7%	-8%	x	2%[46.1 µM]	x	x
50	CCOC(=O)c1ccc2c(c1)N(C)C(=O)c1ccccc1S2	x	x	x	-25%	1%	x	8%	-10%
51	CCCCc1c(C)nc2nc(SCc3ccc(Cl)cc3)[nH]n2c1=O	x	x	x	-6%	4%	x	11%	-6%
52	Cc1nc2c3ccccc3nc(NNC(=O)CCC(=O)N3CCN(c4ccc(F)cc4)CC3)n2n1	8%&-2%[46.1 µM]	u	0.9%	-17%&-23%	18%	14%&-1%[46.1 µM]	1%	-3%
53	CCN1C(=O)C(F)(CC)C(=O)c2ccccc21 (stereo not drawn)	17%	5%	0.8%	-27%	-15%	0%	2%	-6%
54	CCCCCCCC(=O)NNC(=O)c1c(O)c2ccccc2[nH]c1=O	x	x	x	-2%	-1%	x	-4%	-77%
55	O=C(Nc1ccc(S(=O)(=O)Nc2ccccc2)cc1)C1COc2ccccc2O1 (stereo not drawn)	-20%	6%	-8.0%	x	-32%	-26%	0%	-11%
56	Cc1[nH]nc2c1C(CCc1ccccc1)C(C#N)=C(N)O2 (stereo not drawn)	3%	5%	-0.4%	10%	0%	19%	5%	-10%
57	CCN(CC(=O)N1CCCC1)S(=O)(=O)c1ccc2ccccc2c1	x	x	x	2%	-9%	x	-10%	0%
58	O=C(NCc1cccnc1)C1CC(=O)N(c2ccc(Cl)cc2)C1 (stereo not drawn)	6%	-13%	-1.4%	0%	5%	-8%	6%	3%
59	Cc1cccc(-n2c(SCC(N)=O)nc3c(c2=O)C2(CCCCC2)Cc2ccccc2-3)c1	4.5µM*	0%	-7.2%	14µM*	-27%	u	-16%	-8%
60	Nc1nnc(SCCCC(=O)c2ccc(Br)cc2)s1	18%[46.1 µM]	-4%	-7.7%	7%	12%	10%	5%	2%

Source: PubChem (National Center for Advancing Translational Sciences (NCATS))
